TRPV1 PAM: HTS Assay for Compounds that Act as Potentiators of the Vanilloid Receptor 1 | 320,000 compounds, 0.02% hits | potentiation, % at 8.33 µM | TRPV1-expressing cells, Fluo-8 calcium influx, capsaicin EC20 potentiation; host cell line not named in the record; control for the full effect not named in the record | Transient receptor potential cation channel subfamily V member 1 (Homo sapiens), Q8NER1; active means potentiation above 80%; inconclusive means 30% to 80%; inactive means below 30%; further: 0% is about no effect
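Cells expressing TRPV1 were dye-loaded with Fluo-8 and read kinetically: 10 s baseline, 3 min after compound (agonist portion), then 2 min after EC20 capsaicin (allosteric enhancer portion). Calcium-bound dye fluorescence at 480/520 nm.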
Six1-Eya2 blk: qHTS Assay for Inhibitors of the Six1/Eya2 Interaction; Homeobox protein SIX1 (Homo sapiens) + Protein phosphatase EYA2 (Homo sapiens), …; AlphaScreen GST-Six1/His-Eya2 binding, biochemical; stronger effect = lower value; control for the full effect not named in the record; activity change, % (no concentration beside the values); 360,000 compounds, 0.56% hits; AID 651725, 2012; in the data active = activity change below about -65%; inconclusive = about -30% to -65%; inactive = above about -30%; further: on the % scale 0 is the no-effect control and ±100 the full control effect
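AlphaScreen luminescence read after one hour at 37 °C in darkness. Pin-transferred compounds met GST-Six1 and His-Eya2 protein (5X stock 250 nM/500 nM) plus glutathione donor and Ni-chelate acceptor beads (5X, 50 ug/mL).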
D2 potentiator: Beta-Arrestin HTS for Positive Allosteric Modulators of the Human D2 Dopamine Receptor: Potentiators; potentiation, % (test concentration not listed); 360,000 compounds, 0.23% hits; DiscoveRx D2 beta-arrestin cells, luminescence, 90 min; 100% = 57 uM dopamine signal; D(2) dopamine receptor (Homo sapiens), P14416; active = potentiation of 50% or more; inconclusive = 30% to 50%; inactive = 30% or less;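 further: compound concentration not given in the record; tested on top of an EC20 dose of dopamine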
Target sequence (P14416 whole entry, looked up): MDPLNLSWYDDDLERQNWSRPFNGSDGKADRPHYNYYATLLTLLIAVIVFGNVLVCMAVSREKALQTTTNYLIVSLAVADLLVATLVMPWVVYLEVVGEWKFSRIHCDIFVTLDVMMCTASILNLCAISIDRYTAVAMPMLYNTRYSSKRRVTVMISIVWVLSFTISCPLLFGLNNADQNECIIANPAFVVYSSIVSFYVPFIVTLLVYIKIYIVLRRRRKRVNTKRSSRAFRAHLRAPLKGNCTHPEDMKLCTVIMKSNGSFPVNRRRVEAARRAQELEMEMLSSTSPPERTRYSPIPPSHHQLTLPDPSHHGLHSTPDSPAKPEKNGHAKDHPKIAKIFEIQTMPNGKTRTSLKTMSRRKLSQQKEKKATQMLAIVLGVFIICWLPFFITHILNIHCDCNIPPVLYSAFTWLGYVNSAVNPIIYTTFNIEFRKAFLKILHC
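D2 cells co-treated with compound plus 50 nM dopamine (EC20) for 90 min at 37 deg C to detect potentiation. Beta-arrestin recruitment was read as enzyme-fragment luminescence after 1 h at ambient temperature. Full response was set by 57 uM dopamine.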
TRPML1 agonist: qHTS for Agonists of the Human Mucolipin Transient Receptor Potential 1 (TRPML1) | Mucolipin-1 (Homo sapiens), Q9GZU1 | TRPML1-expressing cells, Ca2+ dye fluorescence, FDSS; host cell line not named in the record; reference of the full effect not given here | activation, % (test concentration not listed) | 410,000 compounds, 0.12% hits | AID 624414, 2012; in the data active = activation above about 50%; inconclusive = about 30% to 50%; inactive = below about 30%; further: 0% is about no effect; the text of the record puts the active cut at 80%
Target sequence (Q9GZU1 whole entry, looked up): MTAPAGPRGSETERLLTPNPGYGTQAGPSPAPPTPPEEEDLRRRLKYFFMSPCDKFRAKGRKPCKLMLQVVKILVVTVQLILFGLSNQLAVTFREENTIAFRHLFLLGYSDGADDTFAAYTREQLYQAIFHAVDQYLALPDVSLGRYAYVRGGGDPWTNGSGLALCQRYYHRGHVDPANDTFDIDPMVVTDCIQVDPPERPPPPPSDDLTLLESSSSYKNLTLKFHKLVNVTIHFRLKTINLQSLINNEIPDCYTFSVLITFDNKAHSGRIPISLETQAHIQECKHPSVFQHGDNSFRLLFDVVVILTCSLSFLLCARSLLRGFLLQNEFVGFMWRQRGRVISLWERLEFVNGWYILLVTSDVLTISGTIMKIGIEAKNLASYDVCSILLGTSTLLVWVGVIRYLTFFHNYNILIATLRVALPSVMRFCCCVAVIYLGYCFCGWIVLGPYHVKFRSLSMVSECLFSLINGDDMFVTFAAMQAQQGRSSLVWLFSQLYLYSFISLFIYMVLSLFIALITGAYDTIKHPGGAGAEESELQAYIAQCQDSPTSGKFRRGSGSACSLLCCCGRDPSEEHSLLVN
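Tetracycline-induced TRPML1-DL cells are seeded and incubated overnight before loading with a no-wash Ca2+ dye and quencher. Agonist activity is taken from the 110 s fluorescence read following compound pin-transfer on an FDSS, before EC80 54-4 challenge.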
CtBP-E1A blk: qHTS Assay for Inhibitors of the CtBP/E1A Interaction. CtBP / adenovirus E1A interaction (AlphaScreen). AlphaScreen GST-E1A/His-CtBP binding, 1536-well; stronger effect = lower value; control for the full effect not named in the record. activity change, % (concentration not given with the values). 340,000 compounds, 0.49% hits. AID 651724, 2012; in the data active means activity change below about -65%; inconclusive means about -30% to -65%; inactive means above about -30%; further: on the % scale 0 is the no-effect control and ±100 the full control effect
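In 5 uL wells, 23 nL compound meets equimolar GST-E1A and His-CtBP (5X stock 125 nM each) for 2 h, 37 °C. Beads (5X, 50 ug/mL) then 1 h, 37 °C, dark.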
TRPML1 blocker: qHTS for Inhibitors of the Human Mucolipin Transient Receptor Potential 1 (TRPML1); 390,000 compounds, 0.02% hits; activity change, negative = inhibition, % (no concentration beside the values); TRPML1-inducible cells, Ca2+ dye fluorescence, FDSS; stronger effect = lower value; inhibition of EC80 agonist-evoked calcium signal; Mucolipin-1 (Homo sapiens), Q9GZU1; in the data active means activity change below about -50%; inconclusive means about -30% to -50%; inactive means above about -30%;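 further: stimulus is agonist 54-4 at its EC80 concentration; on the % scale 0 is the no-effect control and ±100 the full control effect; compound concentration not given in the record; the text of the record puts the active cut at -80%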
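Calcium fluorescence in TRPML1-DL cells induced overnight with Tet: a 110 s read after compound pin addition, then a 110 s antagonist read after challenge with 54-4 at 4 uM final (EC80).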
The depositor's hits bear a star; ? = inconclusive; nt = not tested or not shown.

SMILES	TRPV1 PAM	Six1-Eya2 blk	D2 potentiator	TRPML1 agonist	CtBP-E1A blk	TRPML1 blocker
CCCCN(C(=O)CSc1ncn[nH]1)c1c(N)n(Cc2ccccc2)c(=O)[nH]c1=O	2	12	-1	-0.1	1	-5
O=C(C1CC(=O)N(c2ccc(Cl)cc2)C1)N1CCC(c2nc3ccccc3[nH]2)CC1 (configuration not stated)	-5	-20	-7	0.0	0	45
O=C(CC1(O)C(=O)Nc2ccccc21)c1cccc(-n2cccc2)c1 (configuration not stated)	-2	-3	-3	0.0	-17	-2
O=C(CSc1n[nH]c(=O)n1-c1ccccc1)Nc1ccccc1	3	-2	-5	0.3	1	30
COc1cc(NC(=S)NCc2ccco2)cc(OC)c1	-14	-5	-7	-0.3	-5	2
S=C(NCCN1CCOCC1)N1CCN(c2cccc(Cl)c2)CC1	2	3	-11	-1.5	-17	-2
CCn1nnnc1SCC(=O)N(C1CCCCC1)C1CCCCC1	-10	-7	2	-0.5	4	-5
COc1ccccc1OC(C)C(=O)N1CCc2ccccc21 (configuration not stated)	-7	8	-5	0.0	6	3
Cc1sc2ncnc(SCC(=O)NCC3CCCO3)c2c1C (configuration not stated)	8	3	-3	-0.2	9	-6
O=C(CCCn1c(SCC(=O)c2ccc(Cl)cc2)nc2ccccc2c1=O)NCc1ccco1	0	8	-10	1.2	-3	21
COc1cc(/C=N/Nc2ccc(C)cc2)cc(Br)c1O	3	-6	-21	-0.9	8	-2
O=C(O)c1ccc(-c2nc(-c3ccc(Cl)c(Cl)c3)cs2)cc1	-6	-9	3	-0.3	nt	12

Compound profiles, from the list above. Values in the order: TRPV1 PAM, Six1-Eya2 blk, D2 potentiator, TRPML1 agonist, CtBP-E1A blk, TRPML1 blocker
O=C(O)c1ccc(-c2nc(-c3ccc(Cl)c(Cl)c3)cs2)cc1 across the screens: -6, -9, 3, -0.3, nt, 12
CCCCN(C(=O)CSc1ncn[nH]1)c1c(N)n(Cc2ccccc2)c(=O)[nH]c1=O across the screens: 2, 12, -1, -0.1, 1, -5
COc1cc(NC(=S)NCc2ccco2)cc(OC)c1 across the screens: -14, -5, -7, -0.3, -5, 2
COc1ccccc1OC(C)C(=O)N1CCc2ccccc21 (configuration not stated) across the screens: -7, 8, -5, 0.0, 6, 3

Later entries
SMILES	TRPV1 PAM	Six1-Eya2 blk	D2 potentiator	TRPML1 agonist	CtBP-E1A blk	TRPML1 blocker
COc1cc(/C=N/n2c(COc3ccccc3)n[nH]c2=S)cc(OC)c1OC(C)=O	-6	-12	-6	-0.4	nt	5
BrC(/C=N/N1CCN(Cc2ccccc2)CC1)=C/c1ccccc1	-3	-26	-11	-0.1	-10	-9
O=C(COc1ccccc1)c1cn(CC(=O)N2CCCC2)c2ccccc12	-24	1	-11	0.0	-2	-10
CCCOc1ccc(C(O)CCNC(CC(=O)O)c2ccccc2)cc1 (configuration not stated)	-9	10	-17	-0.2	5	21
CC(=O)c1ccc(OC2(C)CCN(CCOc3ccc(C)cc3)C2)cc1 (configuration not stated)	nt	2	0	0.5	-25	nt
Oc1cccc2ccc(/C=C/c3ccccc3Cl)nc12	0	6	-72	1.2	nt	9
O=C(Cn1nnc(-c2cccc(C(F)(F)F)c2)n1)N1CCCCCC1	-14	8	12	1.3	8	-13
Cc1nc2ccccc2c2oc(C(=O)NCCCN3CCCC3=O)cc12	-5	?	0	1.5	-24	0
CC12CCC(C(=O)NCc3ccccc3Cl)(C(Br)C1=O)C2(C)C (configuration not stated)	10	12	-6	0.3	5	-4
Nc1nc(SCc2cccnc2)c2ncn(C3OC(CO)C(O)C3O)c2n1 (configuration not stated)	nt	-4	-7	-0.7	-3	7
O=C(CCC(=O)N1CCN(S(=O)(=O)c2ccc(Cl)cc2)CC1)Nc1cccc(Br)c1	8	0	-14	-0.3	0	1
CC(C)(C)S(=O)N1Cc2cc(C(=O)NCCCN3CCOCC3)nc(-c3cccc(-c4cc5ccccc5o4)c3)c2[C@@H]1CCO (some centres not stated)	nt	-18	4	-0.3	-15	nt

An excerpt of these results, as labelled records.
CC12CCC(C(=O)NCc3ccccc3Cl)(C(Br)C1=O)C2(C)C (configuration not stated)
- TRPV1 PAM = 10
- Six1-Eya2 blk = 12
- D2 potentiator = -6
- TRPML1 agonist = 0.3
- CtBP-E1A blk = 5
- TRPML1 blocker = -4
Nc1nc(SCc2cccnc2)c2ncn(C3OC(CO)C(O)C3O)c2n1 (configuration not stated)
- TRPV1 PAM = nt
- Six1-Eya2 blk = -4
- D2 potentiator = -7
- TRPML1 agonist = -0.7
- CtBP-E1A blk = -3
- TRPML1 blocker = 7
O=C(COc1ccccc1)c1cn(CC(=O)N2CCCC2)c2ccccc12
- TRPV1 PAM = -24
- Six1-Eya2 blk = 1
- D2 potentiator = -11
- TRPML1 agonist = 0.0
- CtBP-E1A blk = -2
- TRPML1 blocker = -10

(cont.)
SMILES	TRPV1 PAM	Six1-Eya2 blk	D2 potentiator	TRPML1 agonist	CtBP-E1A blk	TRPML1 blocker
CCOC(=O)C1CC2CC(C1)CN(C(=O)C1CCCCC1)C2 (configuration not stated)	-6	1	-1	-0.1	8	0
COc1cc(OC)cc(C(=O)OCc2ccc([N+](=O)[O-])cc2)c1	-3	-4	-2	0.6	-5	-5
N#CC1=C(N)Oc2ccc3ccccc3c2C1c1cccnc1 (configuration not stated)	9	-5	-7	2.3	nt	-8
COc1ccc(C(=O)NC(=S)N2CCCc3ccccc32)cc1OC	-4	-24	0	0.6	-17	8
COc1cccc(CN(C)CC(=O)Nc2ccccc2C(=O)Nc2ccccc2)c1OC	-2	0	-7	1.4	-5	13
CC(=O)c1ccc(NC(=O)CSc2ccc(-c3ccco3)nn2)cc1	-4	-10	17	-0.9	0	-6
COc1ccc(-n2nc3c(c2NC(=O)c2c(-c4ccccc4Cl)noc2C)CS(=O)(=O)C3)cc1	9	-1	0	0.1	-20	-11
C=CCNC(=O)c1ccc(Cl)cc1Cl	-7	0	-26	-0.3	4	-13
O=C(O)c1ccc(S(=O)(=O)c2ccccc2)cc1	-2	3	-8	-0.7	-2	4
CN(C)c1ncnc2c1ncn2[C@H]1CN(Cc2ccco2)C[C@@H](CO)O1	nt	9	-4	-0.1	3	nt
CC1CCN(CC(O)CN2c3ccccc3Sc3ccccc32)CC1 (configuration not stated)	19	-21	-56	0.5	nt	2
Cc1nn(C)c(C)c1S(=O)(=O)N1CCCC(C(=O)N2CCN(c3ccccc3)CC2)C1 (configuration not stated)	3	-2	-8	-0.2	-3	-14
O=C(CN1CCCC1)N1c2ccccc2Sc2ccc(C(F)(F)F)cc21	-14	-3	-10	-0.2	-1	-11
CNC(=S)N/N=C(\C)c1ccc2c(c1)OCCO2	5	-8	-20	-0.3	-13	18
CN(C(=O)COC(=O)/C=C/c1cccc([N+](=O)[O-])c1)C1CCS(=O)(=O)C1 (configuration not stated)	13	-8	0	0.8	?	14
CC1(C)CC(=O)C(C=NCCN2CCN(CCCCS(=O)(=O)O)CC2)=C(O)C1	4	2	-8	-0.2	5	-8
COC(=O)COc1ccc(/C=N/NS(=O)(=O)c2ccccc2)cc1	-15	-5	-5	-0.2	-1	-12
Cc1ccc2oc(=O)c3cnn(CC(=O)NCCN4CCOCC4)c3c2c1	4	3	-4	-0.4	-2	-2
CCC(C)n1c(SCC(=O)Nc2cc(C(C)(C)C)nn2-c2ccccc2)nc2ccccc2c1=O (configuration not stated)	-1	-5	-3	21	nt	9
N#CC1=C(SCc2ccccc2Cl)NC(=O)C(C(N)=O)C1 (configuration not stated)	-11	3	-23	0.4	4	26
Cc1ccc2cc(C3CC(c4ccco4)=NN3S(C)(=O)=O)c(Cl)nc2c1 (configuration not stated)	?	4	3	0.6	-6	-9
CC(=O)c1cccc(CN2CCCC(C(=O)Nc3cccc(-n4cccn4)c3)C2)c1 (configuration not stated)	-7	-9	-39	-0.2	-2	-3
COc1ccc(-c2ccc(S(=O)(=O)NCC3CCCO3)cc2)cc1 (configuration not stated)	-5	7	-5	-0.4	6	5
COc1cc(Cl)ccc1OC1(C)CCN(Cc2ccc(-c3ccccn3)cc2)C1 (configuration not stated)	nt	-26	2	-0.2	-16	nt
COCCn1c(SCC(=O)NCc2ccco2)nnc1-c1c[nH]c2ccccc12	4	6	-4	0.7	-3	33
O=C(NNC1=NCCCCC1)c1ccccc1	-9	3	4	0.1	13	-8
Cc1cc2c(c(=O)o1)C(CC(C)C)C(C#N)=C(N)O2 (configuration not stated)	nt	11	-8	-0.3	5	33
Cc1cc(C)cc(NC(=S)NCCN2CCOCC2)c1	nt	0	-8	-0.9	4	-10
Cc1ccc(/C(O)=C2\C(=O)C(=O)N(CC(C)O)C2c2cccc(F)c2)cc1 (configuration not stated)	-2	4	12	-0.7	8	2
O=C(NC1CC1)C(=O)c1c[nH]c2ccccc12	-1	-7	2	0.0	3	25
CCN(C[C@H]1N[C@@](C)(C(=O)OC)[C@H]2C(=O)N(Cc3ccccc3)C(=O)[C@@H]12)S(=O)(=O)c1ccc(F)cc1	nt	-1	-5	-1.3	5	-13
CCc1c(C)nc(N2CCN(c3ccc(F)cc3)CC2)[nH]c1=O	-65	-3	-1	1.0	-5	0
Cc1cc(NCc2ccccc2)c2ccccc2n1	1	-6	-4	-0.3	2	-10
O=C(NCCCN1CCOCC1)c1ccc(N2CCOCC2)c([N+](=O)[O-])c1	9	8	-6	-0.2	5	15
CCn1c(SCC(=O)N2CCCc3ccccc32)nc2c(c1=O)SC(C)C2 (configuration not stated)	-10	-12	-10	1.2	-4	11
O=C(c1ccccc1SCc1ccc(F)cc1)N1CCOCC1	-13	9	-4	0.1	2	-18
CCOc1ccc(NCc2nnc(SCC(=O)Nc3cc(C)on3)n2-c2ccccc2OC)cc1	4	-19	-13	4.2	-14	28
S=c1[nH]ncn1/N=C/c1ccccn1	-3	-2	-2	0.6	-9	-5
O=C(NC(c1ccc2c(c1)OCO2)c1ccccn1)C1CCN(CCOc2ccccc2)CC1 (configuration not stated)	nt	1	-17	-0.4	-7	nt
